Source: PubChem BioAssay (National Center for Advancing Translational Sciences (NCATS))
VDR inh: vitamin D3 receptor (human) inhibition; VDR-SRC2-3 peptide fluorescence polarization, 2 h; AID 504847; actives 0.93% (n = 400,000); Potency, µM, inactives show max response, negative = inhibition, actives largely listed as inhibitors; active means well fitted inhibition curve with a large enough effect; inconclusive means small, poorly fitted or top-dose-only effect, or another doubt; inactive means no such curve, though single readings can be large or run the other way; further: series mostly up to about 120 µM
Target sequence (P11473 whole entry, looked up): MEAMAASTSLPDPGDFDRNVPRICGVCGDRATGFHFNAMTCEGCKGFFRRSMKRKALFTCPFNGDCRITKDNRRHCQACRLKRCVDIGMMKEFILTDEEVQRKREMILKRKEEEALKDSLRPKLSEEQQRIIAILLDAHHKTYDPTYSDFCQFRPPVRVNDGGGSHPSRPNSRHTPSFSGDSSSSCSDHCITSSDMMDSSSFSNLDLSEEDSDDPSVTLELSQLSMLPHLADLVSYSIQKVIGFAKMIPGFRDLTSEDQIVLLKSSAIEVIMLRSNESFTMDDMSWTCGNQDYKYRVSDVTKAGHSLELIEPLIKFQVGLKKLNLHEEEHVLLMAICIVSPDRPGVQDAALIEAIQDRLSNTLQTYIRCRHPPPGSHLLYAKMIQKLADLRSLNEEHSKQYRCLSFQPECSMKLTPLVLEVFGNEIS
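After 23 nl compound addition and a short centrifugation, plates sat for 2 hours at ambient temperature; polarization of fluorescence then indicated loss of VDR binding to peptide SRC2-3.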
The depositor's hits bear a star; ? = inconclusive; & = joins results of further samples. On the % scale 0 is the no-effect control and ±100 the full control effect; potency means the concentration at half of the fitted maximal effect. Not all compounds are listed, so the mix of outcomes need not match the whole.

| compound | VDR inh |
| --- | --- |
| CCn1c(CN2CCOCC2)nnc1SCC(=O)Nc1ccccc1C | -15% |
| C=CCOc1c2ccc(C(=O)NCc3ccccc3OC)cc2nn1C | 6% |
| COC(=O)CN1C(=O)N/C(=C/c2cc3c(cc2OC)OCO3)C1=O | -22% |
| CCOc1ccc(NC(=O)c2ccncc2)cc1 | -12% |
| O=C(NC(=S)Nn1cnc2c(cnn2-c2ccccc2)c1=O)c1ccc(Oc2ccccc2)cc1 | -24% |
| Cc1ccc2nc(N3CCN(c4cccc(C)c4C)CC3)c3nncn3c2c1 | -8% |
| Cc1c(CNC2CCCCC2)c(C(=O)O)c(C)n1Cc1cccc(Cl)c1 | -10% |
| CCOc1ccc(-n2c(=O)c3ccccc3c3ccccc3c2=O)cc1 | 3% |
| CCCOc1ccc(C(=O)Nc2cccc(NC(=O)c3ccc(Cl)cc3Cl)c2)cc1 | -8% |
| CC(=O)/C(C#N)=C1\NC(=O)C(Cc2ccccc2C)S1 (centres undefined) | 5% |
| CCOC(=O)C1CCN(CC(=O)c2c(C)[nH]c3cc(C)ccc23)CC1 | 4% |
| CCOc1ccc(C2NC(=O)c3sc(=S)n(-c4ccccc4)c3N2)cc1 (centres undefined) | ? |
| COc1ccccc1NC(=O)Cc1nnc(SCC(=O)NC2=NCCS2)n1C | 18% |
| CCOc1ccc(C(=O)N2CCCN(C(=O)c3ccc(OCC)cc3)CC2)cc1 | -12% |
| CCOC(=O)c1c(C)n(-c2ccccc2)c2ccc(OC(=O)c3cccc(OC)c3OC)cc12 | -24% |

Next part, overlapping the part above by 2 compounds.
| compound | VDR inh |
| --- | --- |
| CCOc1ccc(C(=O)N2CCCN(C(=O)c3ccc(OCC)cc3)CC2)cc1 | -12% |
| CCOC(=O)c1c(C)n(-c2ccccc2)c2ccc(OC(=O)c3cccc(OC)c3OC)cc12 | -24% |
| Cc1cc(NS(=O)(=O)c2ccc(NC(=O)c3cc4ccccc4o3)cc2)nc(C)n1 | -5% |
| CCN(CC)CCSc1nc2c([nH]1)c(=S)n(C)c(=O)n2C | 0% |
| O=C(COC(=O)COc1ccccc1)Nc1cccnc1Cl | -27% |
| Cc1ccc(NC(=O)c2cccc3c2-c2ccccc2C3=O)cc1C | 1% |
| CN1CCN(C(=O)c2ccc(N(C)S(=O)(=O)c3cccs3)cc2)CC1 | 2% |
| CC1CCCN(CCCNC(=O)c2nn(C)c3c2CSc2ccccc2-3)C1 (centres undefined) | -22% |
| Cc1ccc(C)c(OCC(=O)Nc2sc3c(c2C#N)CCCC3)c1C | 1% |
| Cc1cc(N/N=C2/CCCc3ccccc32)nc2ccccc12 | 3% |
| COC(=O)C(CCSC)NC(=O)c1cc2c(n(-c3ccc(C)cc3)c1=O)CCCC2=O (centres undefined) | -18% |
| O=C1CCSc2ccc(S(=O)(=O)Nc3cccc(C(F)(F)F)c3)cc2N1 | 7% |
| CN(CC(=O)Nc1ccc(N2CCOCC2)cc1)C(=O)CCNC(=O)c1ccccc1Cl | 2% |
| Cc1nn(-c2ccccc2)c2sc(C(=O)Nc3ccc(Cl)cc3Cl)cc12 | -15% |
| Cc1ccc(N(Cc2cccs2)C(=O)c2ccc(Br)o2)cc1 | 0% |
| NC(=O)c1ccsc1NC(=O)c1cccs1 | 13% |
| O=C(NNC(=O)C1CC1c1ccccc1)Nc1cccc(Cl)c1 (centres undefined) | 4% |
| COc1ccccc1CNC(=O)C1CCC(CNS(=O)(=O)c2ccc3c(c2)CCCC(=O)N3)CC1 (centres undefined) | 8% |
| N#CC(C(=O)NC1CCCCC1)c1nc2ccccc2nc1N1CCN(c2ccccc2F)CC1 (centres undefined) | -1% |
| COc1ccc(-c2nc3n(c2C)CCC3)cc1 | -22% |
| CCCCc1nnc(NC(=O)CCN2C(=O)C3CC=CCC3C2=O)s1 (centres undefined) | -13% |
| COc1cccc(NC(=O)CSc2ccc3nnc(-c4cccnc4)n3n2)c1 | -6% |
| COc1ccc(CCN(C)C(=O)c2cc(-c3ccc(C)cc3)nc3ccccc23)cc1OC | -17% |
| Cc1ccc(CNC(=O)c2ccc3c(O)c(S(=O)(=O)c4ccccc4)c(=O)[nH]c3c2)cc1 | 6% |
| O=C1Nc2ccccc2C(O)(C(=O)NC2CC2)N1c1ccc(Cl)c(Cl)c1 (centres undefined) | 11% |
| C[C@H](CO)N1C[C@H](C)[C@@H](CN(C)C(=O)Nc2ccc(C(F)(F)F)cc2)Oc2ccc(NC(=O)Nc3ccc4c(c3)OCO4)cc2C1=O | 5% |
| CC(C)(C)c1ccc(N2C(=O)CSC2c2cccnc2)cc1 (centres undefined) | 13% |
| O=C(COC(=O)COc1ccccc1)NCc1ccco1 | -21% |
| CC1=C(C(=O)c2ccccc2)C(c2cccc([N+](=O)[O-])c2)NC(=S)N1 (centres undefined) | ? |
| COc1ccc(N2CCN(C(=O)c3cc(-c4cc(OC)ccc4OC)nc4ccccc34)CC2)cc1 | 13% |
| Cc1ccc(/C=C/c2onc(C)c2S(=O)(=O)N2CCC(C(=O)NC(C)(C)C)CC2)cc1 | -20% |
| COc1cc(OC)cc(C(=O)N[C@H](C(=O)OCC(=O)c2ccc3c(c2)NC(=O)CO3)C(C)C)c1 | 4% |
| CCOC(=O)N1CCC(Nc2ncnc3c2cnn3-c2ccccc2)CC1 | 0% |
| CC(C)Sc1nc(SCC(=O)O)c2c3c(sc2n1)COC(C)(C)C3 | -9% |
| O=C(COc1ccccc1)Nc1ccccc1NS(=O)(=O)c1cccs1 | 2% |
| COC(=O)c1sc(N)c(C(=O)OC)c1COC(=O)CNS(=O)(=O)c1ccc(C)cc1 | -13% |
| O=C(CSc1nnc(-c2ccco2)n1-c1ccccc1)Nc1c(Cl)cc(Cl)cc1C(=O)O | 1% |
| CC(C)C(C(=O)NCc1ccccc1)N(CC1CCCO1)C(=O)CNS(=O)(=O)c1ccccc1 (centres undefined) | -11% |
| CCOC(=O)N1CCN(C(=O)CNC(=O)c2ccc(Cl)cc2Cl)CC1 | -15% |
| CC(NC(=O)C1(c2cccs2)CCOCC1)c1ccccc1 (centres undefined) | 7%&14% |
| CCOC(=O)c1cnn(-c2sc(C(=O)OCC)c(C)c2C(=O)OCC)c1N | 9% |
| Cc1ccc2cc(CN(CCN3CCCC3)C(=O)Nc3ccccc3)c(=O)[nH]c2c1C | 4% |
| O=C(c1ccc(Cl)nc1)N1CCC(Cc2ccccc2)CC1 | 7% |
| CCOc1ccc(N(CC)S(=O)(=O)N2CCCC(C(=O)NCc3ccc(SC)cc3)C2)cc1 (centres undefined) | 10% |
| Cc1ccc(-n2nc(C(=O)O)cc2-c2ccccc2)cc1 | -2% |
| CCOC(=O)c1cccc(NC(=O)c2ccc(NC(=O)c3ccco3)cc2)c1 | -9% |
| CC(C)c1ccc(NC(=S)Nc2ccc3[nH]c(=O)[nH]c3c2)cc1 | -14% |
| CC(CNS(=O)(=O)c1ccccc1)Sc1ncccn1 (centres undefined) | 1% |
| CCc1nnc(NC(=O)c2nc3nccc(C)n3n2)s1 | -18% |
| COc1ccc(-c2nc3cnc(N(C)C)nc3n(CCC#N)c2=O)cc1 | 0% |
| Cn1c(O)c(C=Nc2ccc(N3CCOCC3)cc2)c(=O)n(C)c1=S | -20% |
| COc1ccc(CCNC(=O)c2ccc3ccccc3n2)cc1OC | 5% |
| Cc1cccc(N2CCN(C(=S)NC3CCCCC3)CC2)c1C | -7% |
| COc1cc(CN(C(=O)COc2ccc(Cl)cc2)c2ccccn2)cc(OC)c1OC | -1% |
| c1cn(-c2ccc(-c3ccnc4ncnn34)cc2)cn1 | -3% |
| CC1(C)CC(=O)C=C(NNC(=O)OC(C)(C)C)C1 | 0% |
| COC(=O)COc1ccc2c(c1C)O/C(=C\c1ccco1)C2=O | -8% |
| CCCCC(=O)NC(=S)Nc1cc(C(=O)O)ccc1OC | -14% |
| CCNc1ccc(-c2nc(-c3ccncc3)no2)cc1[N+](=O)[O-] | 8% |
| CCC(CC)c1nnc(NC(=O)/C=C/c2ccco2)s1 | -2% |
| CC(C)C[C@H](NC(=O)[C@H](CO)NC(=O)[C@H](C)NC(=O)[C@H](CCCN=C(N)N)NC(=O)[C@H](CCCN=C(N)N)NC(=O)[C@@H](N)CC(C)C)C(=O)NCC(=O)O | 7% |
| Cc1cc(Cl)c(S(=O)(=O)Nc2ccc3c(c2)OCO3)cc1OCC(=O)NC1CCCCC1 | 6% |

By substructure, the entries above with a COOH group.
| compound | VDR inh |
| --- | --- |
| Cc1c(CNC2CCCCC2)c(C(=O)O)c(C)n1Cc1cccc(Cl)c1 | -10% |
| CC(C)Sc1nc(SCC(=O)O)c2c3c(sc2n1)COC(C)(C)C3 | -9% |
| O=C(CSc1nnc(-c2ccco2)n1-c1ccccc1)Nc1c(Cl)cc(Cl)cc1C(=O)O | 1% |
| Cc1ccc(-n2nc(C(=O)O)cc2-c2ccccc2)cc1 | -2% |
| CCCCC(=O)NC(=S)Nc1cc(C(=O)O)ccc1OC | -14% |
| CC(C)C[C@H](NC(=O)[C@H](CO)NC(=O)[C@H](C)NC(=O)[C@H](CCCN=C(N)N)NC(=O)[C@H](CCCN=C(N)N)NC(=O)[C@@H](N)CC(C)C)C(=O)NCC(=O)O | 7% |

The results go on.
| compound | VDR inh |
| --- | --- |
| CC(C)(C)C(=O)Nc1ccc(C(=O)COC(=O)C2=COCCO2)cc1 | -13% |
| Cc1ccc(-n2ncc3c(SCc4ccccn4)ncnc32)c(C)c1 | -5% |
| O=C(CN(Cc1ccccc1Cl)S(=O)(=O)c1ccc(Cl)cc1)N/N=C/c1ccc(C(=O)O)cc1 | 6% |
| CC(=NNc1ccc2ccccc2n1)c1ccccc1O | -12% |
| COC(=O)C1CCN(C(=O)C2CCC(=O)N(CCCc3ccccc3)C2)CC1 (centres undefined) | -6% |
| CCOC(=O)c1ccc(CNC(=O)CCC(=O)O)cc1 | -4% |
| CCOP(=O)(OCC)C(Nc1ccccc1)c1ccc2c(c1)OCO2 (centres undefined) | -6% |
| O=C1CCCC2=C1Sc1ccccc1N2 | 6% |
| CC1CCCCC1NC(=O)COC(=O)/C=C/c1ccco1 (centres undefined) | -23% |
| Cc1ccccc1C(=O)NNC(=O)CSc1nnc(-c2ccncc2)n1-c1ccccc1 | -4% |
| CCCN(C(=O)C1CCCN(c2ncnc3c2nc2n3CCCCC2)C1)c1ccc(F)cc1 (centres undefined) | -17% |
| COc1ccc(S(=O)(=O)NCc2ccccn2)cc1NC(=O)c1ccccc1C | -5% |
| CCOC(=O)N1CCN(C(=O)CS(=O)(=O)Cc2nc(-c3ccccc3F)oc2C)CC1 | -4% |
| Cc1sc(NC(=O)/C=C/c2ccco2)c(C(=O)O)c1C | 5% |
| O=C(NC1CCN(Cc2ccc(F)cc2)CC1)c1ccccc1 | -16% |
| CCn1nc(C)c(CN2CCCC(CO)(Cc3ccccc3)C2)c1C (centres undefined) | -11% |
| COc1ccc(-n2nc3c(N4CCC(C(=O)N5CCC(C)CC5)CC4)nnc(C)c3c2C)cc1 | -10%&11% |
| CCN1CCN(c2ccc(S(=O)(=O)N3CCOCC3)cc2NC(=O)/C=C/c2ccc(C)cc2)CC1 | -1% |
| Cc1nc(SCc2ccc(C(=O)O)cc2)nc2c1CCCC2 | 7% |
| COC(=O)N1C(c2ccccc2)=Cc2ccccc2C1C1(C(=O)OC)CCCC1=O (centres undefined) | ? |
| COc1ccccc1C(=O)NCCC(=O)NC1CCCC(C)C1C (centres undefined) | -18% |
| Cc1c(Cc2ccccc2)c(=O)oc2cc(OCC(N)=O)ccc12 | 16% |
| CN(Cc1c(F)cccc1Cl)C(=O)CNC(=O)c1sc2ccccc2c1Cl | -13% |
| NS(=O)(=O)c1ccc(CCNC(=O)CSc2nc3ccccc3c(=O)n2CC2CCCO2)cc1 (centres undefined) | -19% |
| CCOC(=O)c1ccc(NC(=O)CC2C(=O)N(c3ccc(C)cc3)C(=O)N2C2CCCC2)cc1 (centres undefined) | -4% |
| N=c1oc2ccccc2cc1C(=O)N/N=C/c1ccccc1 | 3% |
| COc1ccccc1CNC(=O)COC(=O)c1cc(=O)[nH]c2ccccc12 | 6% |
| CCC(C)SCc1nc2ccccc2[nH]1 (centres undefined) | -3% |
| CN(C)S(=O)(=O)c1ccc(Oc2ccc(S(=O)(=O)N(C)C)cc2)cc1 | 13% |
| COc1ccc(/C=C2/SC(=O)N(CCC(=O)Nc3ccc(S(=O)(=O)Nc4nccs4)cc3)C2=O)cc1 | -7% |
| O=C(CCc1ccccc1)NCCC1=CCCCC1 | 6% |
| CCOc1ccc(NCc2cc3c(C(C)(C)C)nn(-c4ccccc4)c3[nH]c2=O)cc1 | 16% |
| Cc1ccc(NC(=O)NNC(=O)C2CC(c3cccs3)=NO2)cc1 (centres undefined) | -9% |
| CCCCc1nnc(NC(=O)C2CC(=O)N(c3ccc(C)cc3)C2)s1 (centres undefined) | -13% |
| Cc1cnc(CNc2ncnc3ccc(-c4ccccc4C#N)cc23)cn1 | 0% |
| COc1cc(/C=C/C(=O)Nc2ccc3[nH]c(=O)[nH]c3c2)cc(OC)c1OC | -3% |
| CCC1(C)NC(C(=O)O)Cc2c1[nH]c1ccccc21 (centres undefined) | -7% |
| COc1ccc(N/C(=C/[N+](=O)[O-])SC)cc1 | -22% |
| CCOCCCN(C(=O)CNC(=O)c1ccco1)C(C(=O)NC1CCCC1)c1ccccc1C (centres undefined) | 3% |
| CC(C)Cn1c2c(c(=O)[nH]c1=O)C(NS(=O)(=O)c1ccc(Cl)cc1)(C(F)(F)F)C(=O)N2 (centres undefined) | 7% |
| Cc1cccc(Cn2cc(/C=C(/C#N)C(=O)Nc3cccc(Cl)c3)c3ccccc32)c1 | 3% |
| CN(CC(=O)Nc1ccccc1Br)C(=O)c1ccccc1-c1nc2ccccc2s1 | -1% |
| CCOc1ccc(C=NNc2ccc(S(=O)(=O)Nc3ccccc3C(=O)O)cc2[N+](=O)[O-])cc1OC | -10% |
| CC(C)CCN1CCN(Cc2cccc(-n3cccn3)c2)CC1CCO (centres undefined) | -26% |
| Nc1scc2c(C(=O)N/N=C/c3ccc(Cl)cc3)nn(-c3ccccc3)c(=O)c12 | ? |
